# Sa ugtP lethal: growth inhibition of S. aureus ugtP deletion strain. S. aureus RN4220 ugtP deletion, OD600 growth, 16 h; some inactives read as strong as hits. growth inhibition, % (test concentration not listed). 330,000 tested, 0.54% active;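 active means z-score under -3 and OD600 up to 0.15 on both plates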;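 further: plate controls were untreated wells for no effect and antibiotic for full effect; wells of about 80 µL received 100 nL stock; the first replicate is given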
# Sa RN4220 lethal: S. aureus RN4220 growth inhibition. inhibition, % (no concentration beside the values). AID 1259311. 330,000 tested, 0.33% active. OD600, 16 h;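 active means z-score of -3 or lower and OD600 up to 0.18 on both plates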;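 further: plate controls were untreated cells for no effect and reference antibiotic for full effect; stock transfer was 100 nL into about 80 µL; one replicate is shown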
# Bead autofluor: counter-screen for toxin protease inhibitors: compound fluorescence; fluorescence intensity (no concentration beside the values); compound autofluorescence counterscreen, microsphere flow cytometry; stronger effect = higher value; 360,000 tested, 3.1% active;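 active means at least 3 SD above the mean of all compounds, about 16000 in these data; inconclusive means too few beads counted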;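 further: 100 nL of 1 mM stock went into each well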
# BJeLR viability: BJeLR cell viability loss; inhibition, % (concentration not given with the values); 300,000 tested, 0.17% active; BJeLR (HRASV12) viability, CellTiter-Glo ATP luminescence, 48 h; reference of the scale not given here;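 active means replicate mean above 50%; inconclusive means above 50% but judged a plate artefact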;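 further: 50 nL library stock added to about 25 µL; numbers are from one replicate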
# Mtb hypoxia inh: Mtb hypoxia fluorescent reporter inhibition | M. tuberculosis hypoxia-regulated fluorescent reporter, fluorescence | 300,000 tested, 0.1% active | fluorescence inhibition, % (no concentration beside the values);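 active means 35 to 45% if threefold the growth effect, above 45% if 1.5-fold the growth effect; inactive means the rest, general growth blockers included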;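 further: wells of about 50 µL received 100 nL stock; 0% = vehicle wells and 100% = reference inhibitor wells; whole bacteria with a GFP reporter of the hypoxia response; strong numbers were not always called active; many hits fall short of the cut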
# PrP UTR inh: inhibition of PrP 5' UTR reporter expression; 340,000 tested, 0.35% active; inhibition, % (test concentration not listed); cell-based PrP 5' UTR mRNA reporter, plate reader;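 active means every replicate at 50% or more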;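 further: 0 = median of the neutral control wells; tested in H4 reporter cells; numbers are from one replicate; inactives centre near -14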
# Mtb hypoxia inh growth: recorded beside Mtb hypoxia inh, whose call it bears; growth inhibition, %; measured here: M. tuberculosis growth (absorbance);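 0% = vehicle and 100% = reference antibiotic; read after six days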
# * = called active by the depositor; ? = inconclusive; · = not tested or not shown.
Structure	Sa ugtP lethal	Sa RN4220 lethal	Bead autofluor	BJeLR viability	Mtb hypoxia inh	Mtb hypoxia inh growth	PrP UTR inh
O=C(CSc1nnc(Cc2cc(=O)[nH]c(=O)[nH]2)n1-c1ccccc1)N1CCCCC1	4	1.1	5313	-9	·	·	-37
COc1ccc(C(=O)N/C(=C\c2ccccc2)C(=O)N2CCOCC2)cc1	-1	2.5	6092	2	14	14	-3
O=C(CCCOC(=O)c1ccc(O)cc1O)c1ccc(F)cc1	2	12	5102	0	-3	8	-21
Cc1ccc(NS(=O)(=O)c2ccc(C(=O)N3CCCCCC3)cc2)cc1	1	4.8	2880	·	3	-7	-15
CCOC(=O)CC(NC(=O)c1cc2cc(Br)ccc2oc1=O)c1cccc([N+](=O)[O-])c1 (centres undefined)	-18	0.8	9990	-12	11	2	-29
O=C1CCCc2sccc2N1	-3	6.0	8046	-16	11	5	-21
CCOC(=O)C1CCN(C(=O)COc2ccc(S(=O)(=O)NC(C)(C)C)cc2)CC1	10	4.6	3793	2	·	·	-15
O=C(NCC(=O)N1CCCC(C(F)(F)F)C1)c1ccc(Oc2ccccc2)cc1 (centres undefined)	4	-0.6	6175	9	-1	0	-12
NC(=O)c1cc(S(=O)(=O)NCCCc2ccccc2)cs1	-2	-2.4	3770	0	12	6	-14
CN(CC(=O)N1CCN(c2cccc(Cl)c2)CC1)S(=O)(=O)c1cccs1	3	5.0	4186	-7	-5	-2	-3
Cn1c(=O)c(=O)n(C)c2cc(S(=O)(=O)N3CCN(c4ccc(F)cc4)CC3)ccc21	10	8.3	2205	0	-3	-6	-12
CC[n+]1c(C)sc2c3ccsc3ccc21	5	5.1	2363	2	5	0	-6
COc1ccc(C(=O)NC(=S)NCc2ccccc2)cc1OC	28	6.6	4884	0	11	-5	-29
CC(=O)c1sc2nc(-c3ccco3)ccc2c1N	-2	4.2	3618	-1	13	1	·
COc1ccc2c(C)c(CC(=O)N3C[C@H]4C[C@@H](C3)c3cccc(=O)n3C4)c(=O)oc2c1OC	0	0.8	5277	2	·	·	-16
CCOc1ccc2oc(C(=O)N3CCCN(C)CC3)c(C)c2c1	6	5.8	5485	·	6	1	-11
Cc1ccc(-n2c(SCC(=O)Nc3ccc4c(c3)OCCO4)nnc2-c2ccco2)cc1	12	2.7	3569	-7	-2	8	-9
O=C(NCCN1CCOCC1)C1CC(=O)N(c2ccc(F)cc2)C1 (centres undefined)	-7	0.1	3792	1	-15	4	4
CC12CC(NC(=O)N1c1cccc(C(=O)NCc3ccccc3)c1)c1ccccc1O2 (centres undefined)	-1	1.2	·	-8	-1	2	·
Cc1ccc(-c2cc(C(=O)NCc3ccco3)c3ccccc3n2)s1	-2	0.1	6837	3	·	·	-8
Cc1ccc(OCC(=O)NN=Cc2ccc(C)o2)c(C)c1	0	3.1	·	·	12	13	·
CC1CCN(C(=S)NC(=O)c2ccc(C(C)(C)C)cc2)CC1	18	-2.0	6172	-8	-4	8	-54
O=C(c1ccco1)N1CCN(C(=O)c2cc3cc([N+](=O)[O-])ccc3oc2=O)CC1	2	-0.7	4147	·	9	4	-8
Cc1ccccc1N1CCN(C2CCCN(C(=O)CCn3cnnn3)C2)CC1 (centres undefined)	0	1.1	6403	1	1	6	-6
CCc1nnc(NC(=O)CSc2nnc(C3CCCCC3)n2-c2ccccc2)s1	-1	-0.3	4594	2	5	-1	-12

# Additional results
Structure	Sa ugtP lethal	Sa RN4220 lethal	Bead autofluor	BJeLR viability	Mtb hypoxia inh	Mtb hypoxia inh growth	PrP UTR inh
COc1cc2c3c(c1OC)C1(C=CC(=NNC(N)=O)C=C1)CC3N(C(C)=O)CC2 (centres undefined)	4	2.1	2082	5	-8	2	-18
Cc1ccc(NC(=O)CN(C)C(=O)Cc2ccc(Cl)c(Cl)c2)cc1	12	-4.3	4248	-13	-8	-3	-24
CCOC(=O)[C@@H]1[C@H]2COc3ccc(Br)cc3[C@@H]2N2C(=O)N(c3ccccc3)C(=O)[C@@]12C	·	·	2787	-20	·	·	-1
C/C(CC(=O)NC(C)c1ccccc1)=N\NC(N)=S (centres undefined)	·	·	4473	-16	·	·	-29
CC(=O)NNC(=S)Nc1cc(S(=O)(=O)N(C)C)ccc1C	3	4.7	2415	-8	7	0	-1
CCN(CC)c1ccc([N+](=O)[O-])cc1C(=O)N1CCOCC1	3	1.9	3572	9	20	4	-18
Cc1nc2ccccc2n1CC(=O)OCC(=O)N1CCC(C)CC1	6	5.2	3749	·	6	7	-5
CCOCCCN1C(=O)CN(C2CCCCC2)C(=O)C1c1ccc(OCC)c(OC)c1 (centres undefined)	4	2.1	15474	-11	1	2	-21
O=C(c1ccccc1F)N1CCN(c2ccc([N+](=O)[O-])c(NCC3CCCO3)c2)CC1 (centres undefined)	5	1.1	2087	4	-7	-1	7
COc1cccc(CN2CCc3[nH]c(=S)[nH]c(=O)c3C2)c1	5	1.3	4045	-2	3	-2	-8
O=C(CC12CC3CC(CC(C3)C1)C2)NCCN1CCOCC1	4	5.2	10001	2	8	5	·
COc1ccc(/C=C/C(=O)NCCOc2ccc(C)cc2)cc1	30	-1.2	2600	-7	4	4	-34
COc1cc(C2NC(=S)NC(c3ccccc3)=C2C(C)=O)ccc1O (centres undefined)	5	9.1	5283	11	17	5	-40
CC(=O)c1cccc(NC(=O)C(C)OC(=O)c2cc(C)oc2C)c1 (centres undefined)	11	1.5	5297	·	2	15	-12
Cc1ccc(-c2nnc(SCC(C)C)n2C)cc1	-4	3.3	3992	-3	11	6	-73
CC(=O)NC(Cc1ccc(F)cc1)C(=O)NC1CCN(C(=O)NCc2ccccc2)CC1 (centres undefined)	·	·	3521	2	·	·	-28
CCN(CC)C(=S)NCCc1ccccc1	12	-0.2	2562	2	7	11	-21
C[C@@H](CN1C2=NC[C@H](C)N2C[C@H]1Cc1ccc(O)cc1)NC(=O)CCC1CCCCC1	·	·	4138	0	·	·	-29
Cc1nc(NC(=O)/C=C/c2ccccc2)sc1C(=O)Nc1ccccc1	-2	1.5	6418	9	4	0	3
COc1ccccc1CNC(=O)COC(=O)c1cccc(S(=O)(=O)N2CCOCC2)c1	10	-1.3	4807	-5	5	11	-15
Cc1cc(C)cc(NCc2cc(=O)oc3cc(-c4ccccc4)c(O)cc23)c1	-4	6.6	2550	8	3	10	2
COc1ccc(N(CC(=O)NN=Cc2ccco2)S(=O)(=O)c2ccccc2)cc1Cl	2	2.0	·	·	-17	-3	·
CC1CCC(C)(NS(=O)(=O)OCC(Cl)(Cl)Cl)CC1 (centres undefined)	8	6.4	4018	-1	5	2	-15
CCCCC(=O)NC(=O)NC(c1ccccc1)c1ccccc1	-16	-1.5	·	9	-5	4	-9
O=C1CCCC2=C1C1(O)C(=O)c3ccccc3C1(O)O2 (centres undefined)	9	0.7	2096	-8	·	·	1

# Remaining list, next part.
Structure	Sa ugtP lethal	Sa RN4220 lethal	Bead autofluor	BJeLR viability	Mtb hypoxia inh	Mtb hypoxia inh growth	PrP UTR inh
CCC1Oc2ccc(C)cc2N(CC(=O)N2CCOCC2)C1=O (centres undefined)	2	3.2	4220	3	7	2	-4
Cc1ccc2nc(-c3ccccc3NC(=O)CCC(=O)O)c(=O)[nH]c2c1	10	5.0	4252	-6	4	1	-30
CCn1c(SCC(=O)O)nc2ccccc21	8	6.1	4306	6	11	2	-20
CCN(CC)S(=O)(=O)c1cccc(C(=O)OCC(=O)NC(C)c2ccccc2)c1 (centres undefined)	-8	-4.0	2512	2	7	6	-27
Cc1ccc2[nH]c(=O)c(C(c3nnnn3C(C)(C)C)N3CCN(C(=O)c4ccco4)CC3)cc2c1 (centres undefined)	-1	7.0	10855	3	4	3	·
CC(NC(=O)COC(=O)c1cc(NS(=O)(=O)c2ccc(Cl)c([N+](=O)[O-])c2)ccc1O)C1CC2CCC1C2 (centres undefined)	-9	-6.1	10126	5	5	6	-17
O=C(O)CCSc1nc2ccccc2n1CCOc1ccccc1	4	10	10555	-2	5	5	-33
COc1ccc(C=NN2CCN(c3ccc(Cl)cc3)CC2)cc1O	2	1.3	·	·	-4	9	·
Cc1ccc(NCc2nc(SCC(=O)Nc3ccccc3)n[nH]2)cc1	9	0.5	4191	-3	5	3	-22
CC(=O)Nc1ccccc1Sc1ccc2c3c(cccc13)C(=O)N(c1ccc(C)cc1)C2=O	-4	2.7	2484	4	7	-2	3
Cc1ccc(S(=O)(=O)Nc2ccc(N3CCOCC3)cc2)cc1C	4	5.4	2858	8	-4	-8	-9
O=C(NNC(=O)C12CC3CC(CC(C3)C1)C2)c1ccccc1O	-4	1.0	7917	·	9	-2	7
Cc1ccc(OCc2nnc(SCC(=O)Nc3ccc4c(c3)OCO4)n2C)cc1	-11	2.5	26293*	-3	5	16	-20
CC1(C)CC(=O)c2c(oc3cc(O)c(O)cc23)C1	-3	10	17024*	-5	19	8	-15
O=C(Nc1cccc(S(=O)(=O)Nc2ccccc2F)c1)c1ccc2ccccc2n1	-7	21	3177	-2	-6	8	-19
O=C(COC(=O)c1ccccc1)NC1CCCCCC1	4	2.2	2944	·	6	0	-10
O=c1c(Sc2ccccc2)c(C(F)(F)F)[nH]n1-c1ccccc1	51	44	?	9	3	1	-9
CCCCCCCCCCC(=O)Nc1cccnc1	-1	-7.8	·	-1	8	12	·
O=C(NCc1ccccc1)C1CCC(CNc2c(N3CCCCC3)c(=O)c2=O)CC1 (centres undefined)	11	2.3	5794	-3	-3	-3	-6
COCCCOc1cc(NCc2ccccc2)c2ncn(C(C)C)c2c1	-6	6.0	3176	·	-1	7	-1
COc1cccc(C=NNC(=S)Nc2cccc(S(=O)(=O)N(C)C)c2)c1	9	5.0	·	·	-6	8	·
N#CCCN(C(=O)COC(=O)c1ccc2c(=O)n3c(nc2c1)CCC3)c1ccc(F)cc1	-5	-0.2	4335	·	4	8	-7
COc1cccc(CNC(=O)c2ccc(COc3ccccc3)cc2)c1	-3	-2.7	4865	-1	-5	-11	5
N#CC1=C(SCc2ccccc2)NC(=O)CC1c1ccco1 (centres undefined)	1	4.7	20548*	-3	5	-2	-34
Cc1cccc(NC(=O)[C@H](Cc2ccccc2)NC(=O)OCc2ccccc2)c1	17	2.6	2252	-7	9	6	-6

# Molecules listed so far that have a COOH group (3):
Structure	Sa ugtP lethal	Sa RN4220 lethal	Bead autofluor	BJeLR viability	Mtb hypoxia inh	Mtb hypoxia inh growth	PrP UTR inh
Cc1ccc2nc(-c3ccccc3NC(=O)CCC(=O)O)c(=O)[nH]c2c1	10	5.0	4252	-6	4	1	-30
CCn1c(SCC(=O)O)nc2ccccc21	8	6.1	4306	6	11	2	-20
O=C(O)CCSc1nc2ccccc2n1CCOc1ccccc1	4	10	10555	-2	5	5	-33

# (continued)
Structure	Sa ugtP lethal	Sa RN4220 lethal	Bead autofluor	BJeLR viability	Mtb hypoxia inh	Mtb hypoxia inh growth	PrP UTR inh
CC(=O)c1ccc(N(CC(=O)NC2CCCC2)C(=O)CNC(=O)c2cccs2)cc1	4	0.8	3655	3	-5	0	-10
CCCCSc1oc(-c2ccco2)nc1S(=O)(=O)c1ccccc1	8	8.6	5317	-10	0	5	-12
O=C(CN1C(=O)NC(c2ccc(F)cc2)C1=O)NC1CCCCC1 (centres undefined)	2	7.9	·	·	-4	2	5
Cc1ccc(CNC(=O)C2CC(c3ccccc3[N+](=O)[O-])=NO2)o1 (centres undefined)	-2	-2.0	3046	7	-3	-1	-34
COc1cccc(N2CCN(C(=O)c3cc(-c4ccccc4)nc4c3cnn4C(C)C)CC2)c1	7	-7.6	4912	·	2	7	-7
CCOC(=O)CN1C(=O)NC(c2ccco2)C(C(C)=O)=C1C (centres undefined)	-1	2.2	·	·	16	8	·
COc1ccccc1N(CC(=O)Nc1ccc(Br)cc1F)S(=O)(=O)c1cccs1	-40	-6.0	·	·	2	6	0
CCCCN(C(=O)C1CCCO1)c1c(N)n(CC(C)C)c(=O)[nH]c1=O (centres undefined)	10	4.5	5368	1	-6	-11	-3
Cc1ccc(CNC(=O)CCC2CCCN(C(=O)c3ccc4c(c3)OCO4)C2)o1 (centres undefined)	12	1.3	5067	10	1	-7	-10

# Bioassay records: PubChem BioAssay, several laboratories
